# FGF22 binding: binders of recombinant human FGF22 by thermal shift. actives 1.5% (n = 340,000). AID 651658. calls only at 9.99 µM. SYPRO orange fluorescence; percent of sucrose octasulfate shift, DMSO zero. Q9HCT0;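 active = melting point raised past a set limit in the mean and every replicate; three in four hits are not shown here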
# Target sequence (Q9HCT0 whole entry, looked up): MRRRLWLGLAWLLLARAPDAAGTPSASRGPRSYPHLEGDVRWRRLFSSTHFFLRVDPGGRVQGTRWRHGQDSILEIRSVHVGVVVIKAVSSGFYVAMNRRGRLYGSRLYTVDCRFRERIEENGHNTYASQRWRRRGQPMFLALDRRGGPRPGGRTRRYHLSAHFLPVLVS
# Calls only; i = inactive. Not all compounds are listed; rates above refer to the full screens.
SMILES,FGF22 binding
Cc1ccc(S(=O)(=O)N(C)C[C@@H]2Oc3ccc(NC(=O)Nc4c(C)noc4C)cc3C(=O)N([C@@H](C)CO)C[C@H]2C)cc1,i
O=C(C[C@H]1CC[C@@H](NC(=O)Nc2ccc3c(c2)OCO3)[C@@H](CO)O1)NCc1ccc(Cl)cc1,i
C[C@H](CO)N1C[C@H](C)[C@@H](CN(C)S(=O)(=O)c2cn(C)cn2)Oc2ccc(NC(=O)CCN3CCOCC3)cc2CC1=O,i
C[C@@H]1CN([C@@H](C)CO)C(=O)c2cc(NS(=O)(=O)c3ccc(F)cc3)ccc2O[C@H]1CN(C)Cc1ccncc1,i
C[C@H]1CN([C@@H](C)CO)S(=O)(=O)c2ccc(C#Cc3ccc(F)cc3)cc2O[C@H]1CN(C)C,i
COc1ccc(NC(=O)N(C)C[C@@H]2Oc3ccc(NC(=O)Nc4c(C)noc4C)cc3C(=O)N([C@@H](C)CO)C[C@H]2C)cc1,i
CCC(=O)Nc1ccc2c(c1)C(=O)N(C)C[C@H](OC)[C@@H](C)CN(C(=O)c1cccnc1)[C@@H](C)CO2,i
C[C@@H]1CCCCO[C@@H](CN(C)Cc2ccc(C(F)(F)F)cc2)[C@@H](C)CN([C@@H](C)CO)C(=O)c2cc(NC(=O)C3CCCCC3)ccc2O1,i
COc1ccc(CN(C)C[C@H]2Oc3c(NC(=O)C4CC4)cccc3C(=O)N([C@@H](C)CO)C[C@@H]2C)cc1,i
C[C@@H]1CCCCO[C@@H](CN(C)C(=O)c2ccncc2)[C@@H](C)CN([C@@H](C)CO)C(=O)c2cc(NS(=O)(=O)c3ccc(F)cc3)ccc2O1,i
COC(=O)C[C@H]1CC[C@@H]2[C@@H](COc3ccc(NC(=O)c4cc(C)on4)cc3C(=O)N2C)O1,i
C[C@H](CO)N1C[C@H](C)[C@@H](CN(C)Cc2ccc(C(=O)Nc3ccccc3N)cc2)Oc2ccc(NC(=O)CCN3CCOCC3)cc2C1=O,i
CN1CCN(C(=O)C[C@@H]2CC[C@@H]3[C@H](COC[C@H](O)CN3S(=O)(=O)c3cccc(Cl)c3)O2)CC1,i
C[C@H](O)C#Cc1ccc2c(c1)O[C@H](CN(C)CC1CCOCC1)[C@H](C)CN([C@H](C)CO)S2(=O)=O,i
NCC[C@H]1CC[C@@H](NC(=O)CCN2CCCCC2)[C@H](CO)O1,i

# Given with the structure last: part of the list above.
FGF22 binding | molecule
i | COC(=O)C[C@H]1CC[C@@H]2[C@@H](COc3ccc(NC(=O)c4cc(C)on4)cc3C(=O)N2C)O1
i | C[C@H](CO)N1C[C@H](C)[C@@H](CN(C)Cc2ccc(C(=O)Nc3ccccc3N)cc2)Oc2ccc(NC(=O)CCN3CCOCC3)cc2C1=O
i | CN1CCN(C(=O)C[C@@H]2CC[C@@H]3[C@H](COC[C@H](O)CN3S(=O)(=O)c3cccc(Cl)c3)O2)CC1

# The listing continues.
SMILES,FGF22 binding
COc1cccc(S(=O)(=O)N(C)C[C@@H]2Oc3ncc(-c4cccc(C(=O)N(C)C)c4)cc3C(=O)N([C@H](C)CO)C[C@@H]2C)c1,i
COc1ccc(-c2cn(CC[C@@H]3CC[C@@H](NC(=O)c4cnccn4)[C@@H](CO)O3)nn2)cc1,i
CCS(=O)(=O)Nc1ccc2c(c1)C(=O)N(C)C[C@H](OC)[C@@H](C)CN(CCC(F)(F)F)[C@@H](C)CO2,i
COc1ccc2c3c([nH]c2c1)[C@H](CO)N(S(C)(=O)=O)CC31CCN(CC2CCCCC2)CC1,i
C[C@@H]1CN([C@H](C)CO)C(=O)Cc2cc(NS(=O)(=O)c3ccccc3)ccc2O[C@@H]1CN(C)S(=O)(=O)c1ccc(F)cc1,i
C[C@H](CO)N1C[C@H](C)[C@@H](CN(C)S(=O)(=O)c2cccc(F)c2)Oc2ncc(C#CC3CC3)cc2C1=O,i
CN1C(=O)c2cc(NC(=O)C3CCCC3)ccc2OC[C@H]2O[C@H](CC(=O)NCCc3ccncc3)CC[C@H]21,i
O=C(C[C@H]1CC[C@@H]2NC[C@H](O)COC[C@H]2O1)N1CCc2ccccc2C1,i
C[C@H]1CN([C@@H](C)CO)C(=O)Cc2cc(NC(=O)Cn3cnnn3)ccc2O[C@@H]1CN(C)S(=O)(=O)c1cn(C)cn1,i
CC(=O)N(C)C[C@@H]1Oc2ncc(C#Cc3ccccc3)cc2C(=O)N([C@H](C)CO)C[C@@H]1C,i
CCCN1[C@@H]2c3ccc(C4=CCCCC4)c(=O)n3C[C@@H]2[C@@H](CO)[C@@H]1C(=O)OC,i
C[C@@H](NC(=O)C[C@@H]1C[C@@H]2c3cc(NC(=O)CN(C)C)ccc3O[C@@H]2[C@H](CO)O1)c1ccccc1,i
C[C@@H]1CN([C@@H](C)CO)C(=O)c2cccc(NS(=O)(=O)c3cn(C)cn3)c2O[C@@H]1CN(C)S(=O)(=O)c1ccccc1,i
Cc1noc(C)c1NC(=O)Nc1ccc2c(c1)C(=O)N([C@@H](C)CO)C[C@@H](C)[C@H](CN(C)Cc1ccc(Cl)c(Cl)c1)OCCCC[C@H](C)O2,i
CCNC(=O)[C@@H]1[C@@H](CO)[C@@H]2Cn3c(ccc(/C=C/c4ccccc4)c3=O)[C@H]1N2C(=O)c1ccncc1,i
Cc1ccc(S(=O)(=O)Nc2ccc3c(c2)C(=O)N([C@H](C)CO)C[C@@H](C)[C@H](CN(C)C(=O)Nc2ccc(F)cc2)O3)cc1,i
CO[C@@H]1CN(C)C(=O)c2cc(NS(=O)(=O)c3ccccc3C)ccc2OC[C@H](C)NC[C@H]1C,i
COc1ccc(CN(C)C[C@H]2Oc3c(NC(=O)NC(C)C)cccc3C(=O)N([C@@H](C)CO)C[C@@H]2C)cc1,i
Cc1noc(C)c1NC(=O)NCC[C@H]1CC[C@@H](NC(=O)c2ccncc2)[C@@H](CO)O1,i
CCCNC(=O)Nc1ccc2c(c1)OC[C@@H](C)N(C(=O)C1CCCCC1)C[C@H](C)[C@@H](OC)CN(C)C2=O,i
Fc1ccc2cnc(-c3ccsc3)cc2c1,i
O=C(C[C@H]1C=C[C@H](NC(=O)C2CCC2)[C@H](CO)O1)NC1CCC1,i
CCCC#Cc1cnc2c(c1)C(=O)N([C@H](C)CO)C[C@H](C)[C@H](CN(C)C(=O)c1cccc(F)c1)O2,i
CC(C)(C)c1ccc(S(=O)(=O)NCC2CCN(C(=O)C(=O)c3cccs3)CC2)cc1,i
COc1ccccc1-c1cnc2c(c1)C(=O)N([C@H](C)CO)C[C@H](C)[C@H](CN(C)Cc1cncnc1)O2,i
C[C@H](CO)N1C[C@H](C)[C@@H](CN(C)C(=O)Nc2ccc3c(c2)OCO3)Oc2c(NC(=O)C3CCOCC3)cccc2C1=O,i
C[C@H]1CN([C@@H](C)CO)C(=O)c2cccc(NS(=O)(=O)c3ccc(Cl)cc3)c2O[C@H]1CN(C)C(=O)Nc1ccccc1,i
OC[C@@H]1[C@H](c2ccc(-c3ccc(F)cc3)cc2)[C@H]2CN(CCC(F)(F)F)CCCCN12,i
C/C=C/c1ccc2c(c1)O[C@@H](CN(C)C(=O)c1ccc3c(c1)OCO3)[C@@H](C)CN([C@@H](C)CO)S2(=O)=O,i
C[C@@H]1CCCCO[C@H](CN(C)C(=O)Cc2ccccc2)[C@@H](C)CN([C@H](C)CO)C(=O)c2cc(NS(=O)(=O)c3ccc(Cl)cc3)ccc2O1,i

# Sorted by count of non-hydrogen atoms (high to low): part of the list above.
SMILES,FGF22 binding
C[C@@H]1CCCCO[C@H](CN(C)C(=O)Cc2ccccc2)[C@@H](C)CN([C@H](C)CO)C(=O)c2cc(NS(=O)(=O)c3ccc(Cl)cc3)ccc2O1,i
Cc1ccc(S(=O)(=O)Nc2ccc3c(c2)C(=O)N([C@H](C)CO)C[C@@H](C)[C@H](CN(C)C(=O)Nc2ccc(F)cc2)O3)cc1,i
C[C@H]1CN([C@@H](C)CO)C(=O)c2cccc(NS(=O)(=O)c3ccc(Cl)cc3)c2O[C@H]1CN(C)C(=O)Nc1ccccc1,i
CCCNC(=O)Nc1ccc2c(c1)OC[C@@H](C)N(C(=O)C1CCCCC1)C[C@H](C)[C@@H](OC)CN(C)C2=O,i
CCNC(=O)[C@@H]1[C@@H](CO)[C@@H]2Cn3c(ccc(/C=C/c4ccccc4)c3=O)[C@H]1N2C(=O)c1ccncc1,i
CCCC#Cc1cnc2c(c1)C(=O)N([C@H](C)CO)C[C@H](C)[C@H](CN(C)C(=O)c1cccc(F)c1)O2,i
CO[C@@H]1CN(C)C(=O)c2cc(NS(=O)(=O)c3ccccc3C)ccc2OC[C@H](C)NC[C@H]1C,i
OC[C@@H]1[C@H](c2ccc(-c3ccc(F)cc3)cc2)[C@H]2CN(CCC(F)(F)F)CCCCN12,i
Cc1noc(C)c1NC(=O)NCC[C@H]1CC[C@@H](NC(=O)c2ccncc2)[C@@H](CO)O1,i
O=C(C[C@H]1C=C[C@H](NC(=O)C2CCC2)[C@H](CO)O1)NC1CCC1,i
Fc1ccc2cnc(-c3ccsc3)cc2c1,i

# Additional records follow:
SMILES,FGF22 binding
CC(=O)N1[C@@H]2Cn3c(ccc(-c4ccccc4)c3=O)[C@H]1[C@@H](C(=O)N1CCCCC1)[C@@H]2CO,i
CCCN(C)C[C@H]1Oc2ncc(C#CCOC)cc2C(=O)N([C@@H](C)CO)C[C@H]1C,i
O=C(C[C@H]1CC[C@H]2[C@@H](COC[C@H](O)CN2C(=O)Nc2ccccc2)O1)NCCCN1CCOCC1,i
C[C@@H]1CCCCO[C@H](CN(C)C(=O)C2CCCCC2)[C@H](C)CN([C@@H](C)CO)C(=O)c2cc(NS(=O)(=O)c3ccccc3)ccc2O1,i
CC1C=NC(S(=O)(=O)N2CC[C@@H]3[C@@H](CO)N(C)c4ccc(C5=CCCCC5)cc4[C@@H]32)=N1 (stereo partly specified),i
Cc1cc(C(=O)Nc2cccc3c2O[C@@H](CN(C)S(=O)(=O)c2ccccc2)[C@@H](C)CN([C@H](C)CO)C3=O)n(C)n1,i
CCCNC(=O)N1CC2(CN(C(=O)COC)C2)c2c(n(C)c3cc(OC)ccc23)[C@H]1CO,i
O=C(C1CCCC1)N1C[C@H]2[C@@H](c3ccccc31)[C@@H](CO)N2C(=O)c1cccnc1,i
CCS(=O)(=O)Nc1ccc2c(c1)C(=O)N(C)[C@H]1CC[C@H](CC(=O)NCc3ccc(OC)cc3)O[C@H]1CO2,i
N#Cc1ccc(-c2ccc(C3[C@@H]4CN(C(=O)c5ccncc5)C[C@H]3N4)cc2)cc1 (stereo partly specified),i
O=C(C[C@@H]1CC[C@@H]2[C@H](COC[C@@H](O)CN2Cc2ccc(Cl)cc2)O1)NCc1ccccc1Cl,i
O=C(C[C@@H]1CC[C@H]2[C@@H](COC[C@@H](O)CN2C(=O)Cc2ccccc2)O1)NC1CCCC1,i
CC(=O)[C@@]12O[C@]3(COC[C@H](c4ccccc4)N3C1=O)[C@@H]1C(=O)N(c3ccccc3)C(=O)[C@@H]12,i
COc1cccc(S(=O)(=O)N[C@@H]2CC[C@@H](CCN)O[C@H]2CO)c1,i
CC(C)NC(=O)Nc1ccc2c(c1)C(=O)N(C)[C@@H]1CC[C@H](CC(=O)NCC(F)(F)F)O[C@@H]1CO2,i
CCC(=O)Nc1ccc2c(c1)OC[C@H](C)N(CCC(F)(F)F)C[C@@H](C)[C@@H](OC)CN(C)C2=O,i
CC(C)CC#Cc1ccc([C@H]2[C@H](CO)N3C(=O)CN(C(=O)Cc4cccnc4)C[C@@H]23)cc1,i
COc1ccc(-c2ccc([C@H]3[C@@H](CO)N(C(=O)CN(C)C)[C@H]3C#N)cc2)cc1,i
C[C@H]1CN([C@@H](C)CO)C(=O)c2cccc(NS(C)(=O)=O)c2O[C@@H]1CN(C)Cc1ccncc1,i
Cc1ccc(S(=O)(=O)N(C)C[C@@H]2Oc3c(NC(=O)C4CCOCC4)cccc3C(=O)N([C@@H](C)CO)C[C@@H]2C)cc1,i
CC(C)NC(=O)Nc1cccc2c1O[C@H](CN(C)S(=O)(=O)c1ccccc1)[C@H](C)CN([C@H](C)CO)C2=O,i
COc1ccccc1S(=O)(=O)N(C)C[C@@H]1OCc2ccccc2-c2c(n(C)c3ccccc23)C(=O)N([C@@H](C)CO)C[C@@H]1C,i
C[C@@H]1CN([C@@H](C)CO)C(=O)c2ccccc2-c2ccccc2CO[C@H]1CN(C)C(=O)[C@@H]1CCCN1C,i
O=C(Cc1ccccc1)N1C[C@H]2[C@@H](c3ccccc31)[C@H](CO)N2C(=O)Cc1ccccc1,i
CCN1[C@@H]2Cn3c(ccc(-c4ccccc4F)c3=O)[C@H]1[C@@H](C(=O)N1CCOCC1)[C@@H]2CO,i
CC(C)NC(=O)Nc1ccc2c(c1)CC(=O)N([C@@H](C)CO)C[C@@H](C)[C@@H](CN(C)C)O2,i
C[C@@H]1COc2cc(N3CCCC3)ccc2S(=O)(=O)N1,i
CN1CCN(C(=O)C[C@@H]2CC[C@@H](NC(=O)c3ccc4c(c3)OCO4)[C@@H](CO)O2)CC1,i
O=C(C[C@H]1C[C@@H]2c3cc(NS(=O)(=O)c4ccc(F)cc4)ccc3O[C@@H]2[C@H](CO)O1)NCc1ccc(Oc2ccccc2)cc1,i
O=C(C[C@H]1CC[C@@H]2[C@H](COC[C@@H](O)CN2CC2CCOCC2)O1)N1CCOCC1,i
CC(=O)N(C)C[C@@H]1Oc2ncc(C#Cc3cccc(F)c3)cc2C(=O)N([C@@H](C)CO)C[C@@H]1C,i
COc1ccc(C#Cc2cccc(-c3nc(C(=O)N[C@@H]4CCN(Cc5ccccc5)C4)cc4c3[C@@H](CCO)N(S(=O)C(C)(C)C)C4)c2)cc1OC (stereo partly specified),i
O=C(C[C@@H]1CC[C@@H](NC(=O)C2CCOCC2)[C@@H](CO)O1)NCc1ccccc1Cl,i
Cc1noc(C)c1NC(=O)N(C)C[C@H]1OCCCC[C@@H](C)Oc2ccc(NC(=O)Cc3ccccc3)cc2C(=O)N([C@H](C)CO)C[C@@H]1C,i
Cc1ccc(S(=O)(=O)N[C@@H]2CC[C@H](CCn3cc(C(C)C)nn3)O[C@H]2CO)cc1,i
C[C@@H]1CN([C@H](C)CO)C(=O)c2cc(-c3cccc(F)c3)cnc2O[C@@H]1CN(C)C(=O)Nc1ccccc1F,i
Cc1ccc(-c2cnc3c(c2)C(=O)N([C@H](C)CO)C[C@H](C)[C@@H](CN(C)C(=O)c2ccccc2)O3)cc1,i
C[C@@H]1CN([C@@H](C)CO)C(=O)c2cccc(NS(=O)(=O)c3ccc(F)cc3)c2O[C@H]1CN(C)S(=O)(=O)c1cn(C)cn1,i
C[C@H]1CN([C@@H](C)CO)C(=O)c2cc(NC(=O)Cc3ccccc3)ccc2O[C@@H]1CN(C)C,i
